Tgondii IFNg: T. gondii growth inhibition with IFN-gamma, primary screen, cell-based; Toxoplasma gondii growth in IFN-gamma-treated host cells; stronger effect = lower value; reference of the scale not given here; activity change, negative = inhibition, %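 (about 20 µM by stock and volumes)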; hit rate 3.8% among 69,000;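 active = below -70%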;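 also: host cells are HeLa cells infected with Toxoplasma gondii; parasite growth read as luciferase light; one replicate is shown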
* hit, by the source's call; i = inactive; & = joins results of further samples. A portion of the library; the hit share may differ from the screen's.

SMILES | Tgondii IFNg
CN1CCC2(CN(Cc3cccnc3)CC23CCN(C(=O)N2CCCC2)CC3)C1=O (stereo not given) | 8
Cc1cccc(-c2ccc(C3[C@@H]4CN(C(=O)Nc5ccc(F)cc5)C[C@H]3N4)cc2)c1 (stereo not given in full) | -30
Cc1occc1C(=O)N1C[C@@H]2CCCO[C@H]2[C@@H](NC(=O)CC2CC2)C1 | 62
O=C1N[C@@H](c2ccccc2)COCc2cn(nn2)CC[C@@H]1Cc1ccc(C(F)(F)F)cc1 | 1
COC(=O)C1=C(C)NC(C)=C(C(=O)OC/C=C/c2ccccc2)C1c1cccc([N+](=O)[O-])c1 (stereo not given) | -2
COc1ccc(OC)c(-c2ccc(NC(=O)CN)c(F)c2)c1 | 6
Cc1cc(C2CCCCCN2Cc2ccc(O)cc2)on1 (stereo not given) | 30
Cc1ccccc1C(=O)NCCc1csc(-c2ccc(C(F)(F)F)cc2)n1 | 187
CCc1c(C)nn(Cc2nc(CC3CCN(C)CC3)no2)c1C | -2
CN1C(=O)c2cc(NC(=O)Nc3ccccc3F)ccc2OC[C@@H]2O[C@@H](CC(=O)NCCc3ccncc3)CC[C@@H]21 | 16
COCCNC(=O)[C@H]1[C@H](CO)[C@H]2Cn3c(cccc3=O)[C@@H]1N2S(=O)(=O)c1ccccc1C | 0
COc1ccc(F)cc1C(=O)C1CCCN(Cc2cn(C)nc2-c2ccccc2)C1 (stereo not given) | -3
c1ccc2c(c1)nc1c2ccc2[nH]onc21 | -2
Cc1ccc(S(=O)(=O)NCc2nc(-c3ccccc3)oc2C)cc1C | -106*
CCOC(=O)C(Cc1ccc(F)cc1)(NC(C)=O)C(=O)OCC | -33
O=C(Nc1cnc2n1CCCC2)c1cccc2cnccc12 | 0
COc1ccc(C[C@H]2CN(S(C)(=O)=O)CC[C@H]2OCC2CC2)cc1 | -4
Cn1nc(-c2cccc(F)c2)c2c1C[C@H]1CN(Cc3nccs3)C[C@H]21 | 1
CC(=O)N1C[C@@H]2[C@H](C1)c1ccccc1[C@H]2NC(=O)c1cccs1 | -5
Cc1ccc(C(=O)N(C)C(C)c2nccs2)cc1N1CCNC1=O (stereo not given) | -4
CC(=O)N1CCc2onc(C(=O)N3CCCC3)c2C1 | i
CCn1c(C2CCN(C(=O)CCCn3ccnc3)CC2)n[nH]c1=O | 10
NC(=O)CSc1ccc(-c2cccc(CN3CCOCC3)c2)cc1 | 14
COCc1ccc(C(=O)N2CCc3c(c(C(=O)O)nn3CC3CC3)C2)o1 | 4
CO[C@@H]1CN(C)C(=O)c2ccc(NS(C)(=O)=O)cc2OC[C@H](C)N(C(=O)CN(C)C)C[C@@H]1C | 93
Cc1nc(CC(NCc2c(C)nc3ccccn23)c2ccc(Cl)cc2)cc(=O)[nH]1 (stereo not given) | 20
O=C(NCc1ccccc1Cl)c1c(O)c2ccccc2n(-c2ccccc2)c1=O | 126
CCc1ccc(C(=O)N2CC(C(=O)N3CCOCC3)C3(CCOCC3)C2)cc1 (stereo not given) | 4
C=CCOC1CC2CC1N(C(=O)c1cnoc1C)C2 (stereo not given) | -54
O=C(NCc1cccc(-n2cccn2)c1)c1cc2ncccn2n1 | -2
COc1ccc2c3c([nH]c2c1)[C@@H](CO)N(C(=O)Nc1cccc(F)c1)CC31CCN(S(=O)(=O)c2cccc(C)c2)CC1 | -59
COc1ncccc1NC(=O)c1ccc(CN2CCN3CCCC3C2)cc1 (stereo not given) | -57
Cc1nn(C)c(C)c1CCNC(=O)C1CC(=O)N(c2ccc(Cl)cc2)C1 (stereo not given) | -10
CN[C@@H](C)[C@H]1[C@H](O)C[C@@]2(C)[C@@H]3CC[C@H]4C(C)(C)[C@@H](NC)CC[C@@]45C[C@@]35CC[C@]12C | 12
C[C@@H]1CN([C@H](C)CO)C(=O)c2ccccc2-c2ccccc2CO[C@@H]1CN(C)Cc1ccc(Oc2ccccc2)cc1 | -48
CCCSCCNC(=O)c1c(O)cccc1O | 156
CCC(Cn1cnc(-c2ccccc2)c1-c1cnn(CC)c1)N1CCN(C)CC1 (stereo not given) | -7
Cc1noc(C)c1S(=O)(=O)N(C)C[C@H]1OCCCC[C@H](C)Oc2ccc(NC(=O)CCC(F)(F)F)cc2C(=O)N([C@@H](C)CO)C[C@H]1C | -18
Cc1nc(Cn2nc(C3CCCNC3)n(-c3ccccc3)c2=O)co1 (stereo not given) | 18
COCCN1C(=O)CCc2cc(NC(=O)c3cc(F)cc(F)c3)ccc21 | 3
Cc1ccc(C(O)CN2CCN(Cc3ncccc3C)CC2)c(C)c1 (stereo not given) | 316
COc1cccc(-c2nc3c(s2)CN(S(=O)(=O)c2ccc(C)cc2)CC3)c1 | -54
C[C@H](NC(=O)[C@H]1[C@H](CO)[C@H]2Cn3c(cccc3=O)[C@@H]1N2C(=O)C1CCC1)c1ccccc1 | 6
CN1C(=O)N(Cc2cccnc2)C(=O)C12CCN(Cc1cnc(-c3ccccc3)s1)CC2 | -55
CN(Cc1ncc[nH]1)Cc1ccc(C2CCCCO2)o1 (stereo not given) | -11
Cc1ccc(O[C@H]2C[C@H]3CN(Cc4nccn4C)CCN3C2)cc1 | -4
Cc1nccn1CC1(O)CCN(C(=O)c2ccc(CN3CCCCC3)cc2)CC1 | -13
CCN(C(=O)CCc1nc(-c2ccccc2F)no1)C1CCOC(C)(C)C1 (stereo not given) | -1
CCC(C)(C)NC(=O)CN1C(=O)CCc2cc(S(=O)(=O)N3CCCCC3C)ccc21 (stereo not given) | 7
COc1ccc(-c2nc3c(s2)CN(S(=O)(=O)c2cc(OC)ccc2OC)CC3)cc1 | -120*
The results go on.
SMILES | Tgondii IFNg
CCOC(=O)c1cnn(C(=O)c2ccc(-n3c(C)ccc3C)cc2)c1N | -62
Cc1nc(-c2ccccc2)sc1CCNC(=O)C(=O)Nc1ccc(Cl)cc1 | 145
COCC(=O)NC[C@H]1[C@H](c2ccccc2)[C@@H](CO)N1C(=O)c1ccccc1 | -12
Cc1noc(C)c1S(=O)(=O)N1CCC2(CC1)Nc1ccc(Cl)cc1-n1cccc12 | -13
CNC(=O)c1cc(C2CCC(CNC(=O)CCn3nc(C)nc3C)CC2)nc2ccccc12 (stereo not given) | 6
Cn1nc(Cn2cccc2)c2c1CN(C(=O)CCC(=O)O)C2 | -1
O=C(Nc1ccc(Cl)cc1)ONC(=O)c1ncc(C(F)(F)F)cc1Cl | 15
Cc1ccc(-c2noc(-c3c(O)c4ccc(F)cc4n(C)c3=O)n2)cc1 | 9
N#Cc1sc2sc(C#N)c(-c3ccc(Cl)cc3)c2c1N | 3
O=C(c1ccco1)N1CCC2O[C@H](COCC3CCOCC3)CCC21 (stereo not given in full) | 0
O=C(Nc1ccc(-c2ocnc2C(=O)N2CCCC2)cc1)c1cccs1 | -26
Cc1ccc(C)c(-c2coc(-c3ccc(NC(=O)NCCc4ccccc4)cc3)n2)c1 | -1
CCCC(=O)N1CCC2(CCCN2CC2CC2)CC1 | -6
Cc1ccc(S(=O)(=O)N2CCC3(CC2)C(=O)NCCN3Cc2ccccc2)cc1 | 16
CC(C)C1CN(C(=O)c2cn[nH]c2-n2cnnn2)CCCN1CC1CC1 (stereo not given) | -61
Cc1ccc(C2(O)CCN(C(=O)c3ccc4c(c3)nnn4C)CC2)nc1 | -4
Cc1noc(-c2ccccc2)c1NC(=O)NCc1cccs1 | -5
O=C(C[C@@H]1C=C[C@@H](NC(=O)Nc2ccc3c(c2)OCO3)[C@H](CO)O1)NCCCN1CCOCC1 | 8
O=C(c1ccco1)N1C[C@H](OCc2cccnc2)[C@@H]2OCCC[C@@H]21 | 38
CC(=O)N1CC2(CCN(C(=O)CC(C)n3cncn3)CC2)Nc2ccccc21 (stereo not given) | 6
CCc1ccccc1NC(=O)c1c(O)c2cccnc2[nH]c1=O | 60
COc1ccc2nc(Cl)c(CNCc3ccccc3F)c(N3CCOCC3)c2c1 | -99*
CS(=O)(=O)c1ccc(CN2CCCC(c3ccccc3)C2)cc1 (stereo not given) | -9
Cn1nnc(NC(=O)CSc2ncn[nH]2)n1 | -13
O=C(NCc1ccc2[nH]c3c(c2c1)CCCCCC3)C1CCS(=O)(=O)CC1 | 1
Cc1nc(-c2cn(C(C)C)c3ncccc23)sc1C(=O)N1CCCC(C)C1 (stereo not given) | -117*
Cc1noc(C)c1NC(=O)N(C)C[C@H]1OCc2ccccc2-c2c(n(C)c3ccccc23)C(=O)N([C@H](C)CO)C[C@@H]1C | -32
CCOc1ccc(-c2nc3c(s2)CN(S(=O)(=O)c2cccs2)CC3)cc1 | -69
c1coc(CN2CCC3(CC2)CNc2ccccc23)c1 | 134
CCc1nc(SCC(=O)N2CCc3[nH]nc(-c4ccccc4)c3C2)n[nH]1 | -4
C[C@@H]1CN([C@@H](C)CO)C(=O)c2c(c3ccccc3n2C)-c2ccccc2CO[C@@H]1CN(C)S(=O)(=O)c1ccccc1C#N | -35
CCCOc1ccc(-c2noc(-c3c(O)c4ccccc4[nH]c3=O)n2)cc1 | 18
O=C(Nc1cccc(Cl)c1)C1Cn2ccnc2C2(CCN(C(=O)c3ccno3)CC2)O1 (stereo not given) | -43
CCC1(CC)CN(C(=O)CC2C(=O)NCCN2Cc2ccoc2)CCO1 (stereo not given) | 4
C/C=C/c1ccc(C2[C@@H]3CN(C(=O)NC4CCCCC4)C[C@H]2N3)cc1 (stereo not given in full) | -22&-28
CCCNC(=O)N1C[C@@H](O)COC[C@@H]2O[C@@H](CC(=O)OC)CC[C@H]21 | 23
O=C(Nc1cc(C(F)(F)F)ccc1N1CCCCC1)c1ccncc1 | 16
Cc1ccc(C)c(NC(=O)CN2CCC3(CC2)N=C(c2ccc(F)cc2)C(=O)N3)c1 | 9
O=C(c1cccc(F)c1)N1C[C@@H]2[C@H](c3ccccc31)[C@H](CO)N2Cc1cocn1 | 2
CCN(CC)c1ncnc2c1cnn2CC(=O)NCc1cccc(Cl)c1 | 27

Part of the list above, reformatted:
SMILES	Tgondii IFNg
Cn1nnc(NC(=O)CSc2ncn[nH]2)n1	-13
O=C(NCc1ccc2[nH]c3c(c2c1)CCCCCC3)C1CCS(=O)(=O)CC1	1
Cc1nc(-c2cn(C(C)C)c3ncccc23)sc1C(=O)N1CCCC(C)C1 (stereo not given)	-117*
Cc1noc(C)c1NC(=O)N(C)C[C@H]1OCc2ccccc2-c2c(n(C)c3ccccc23)C(=O)N([C@H](C)CO)C[C@@H]1C	-32
CCOc1ccc(-c2nc3c(s2)CN(S(=O)(=O)c2cccs2)CC3)cc1	-69
c1coc(CN2CCC3(CC2)CNc2ccccc23)c1	134
CCc1nc(SCC(=O)N2CCc3[nH]nc(-c4ccccc4)c3C2)n[nH]1	-4
C[C@@H]1CN([C@@H](C)CO)C(=O)c2c(c3ccccc3n2C)-c2ccccc2CO[C@@H]1CN(C)S(=O)(=O)c1ccccc1C#N	-35
CCCOc1ccc(-c2noc(-c3c(O)c4ccccc4[nH]c3=O)n2)cc1	18
O=C(Nc1cccc(Cl)c1)C1Cn2ccnc2C2(CCN(C(=O)c3ccno3)CC2)O1 (stereo not given)	-43
CCC1(CC)CN(C(=O)CC2C(=O)NCCN2Cc2ccoc2)CCO1 (stereo not given)	4
C/C=C/c1ccc(C2[C@@H]3CN(C(=O)NC4CCCCC4)C[C@H]2N3)cc1 (stereo not given in full)	-22&-28
CCCNC(=O)N1C[C@@H](O)COC[C@@H]2O[C@@H](CC(=O)OC)CC[C@H]21	23
O=C(Nc1cc(C(F)(F)F)ccc1N1CCCCC1)c1ccncc1	16

Retrieved by compound from above, 2 records:
SMILES | Tgondii IFNg
CCCOc1ccc(-c2noc(-c3c(O)c4ccccc4[nH]c3=O)n2)cc1 | 18
CCN(CC)c1ncnc2c1cnn2CC(=O)NCc1cccc(Cl)c1 | 27

(continued)
SMILES | Tgondii IFNg
COc1ccc(C)cc1NC(=O)C(=O)NCCc1sc(-c2ccc(F)cc2)nc1C | 0
Cc1ccc(N=C2NC(=O)CC(C(=O)Nc3ccc4c(c3)OCO4)S2)cc1 (stereo not given) | -24
COc1ccc(C(=O)NCC2Cc3cc(-c4ccccc4C(C)=O)ccc3O2)c(OC)c1OC (stereo not given) | -6
O=C1CC(C(=O)N2Cc3cnn(CCO)c3C2)c2ccccc21 (stereo not given) | -5
CC(C)c1cc2c(cc1S(=O)(=O)O)[C@@]1(C)CCC[C@@](C)(C(=O)O)[C@@H]1CC2 | 9
O=C(NCc1ccco1)c1nc(Nc2ccc(F)cc2)c2ccccc2n1 | -47
CN(C)CC1(O)CCN(C(=O)c2cc(-c3ccc(O)cc3)n[nH]2)C1 (stereo not given) | -1
CC1COC2(CCCN(C(=O)c3cnn4cccnc34)C2)C1 (stereo not given) | 244
CCn1ncc(Br)c1CN | -1
CC(=O)NCCc1csc(C2CCCN(C(=O)/C=C/c3cccc(Cl)c3)C2)n1 (stereo not given) | -15
COc1ccc(Cl)cc1C(=O)NCCc1csc(-c2ccc(F)cc2)n1 | -84*
CCCS(=O)(=O)N1Cc2cc(-c3ccn[nH]3)ccc2C1c1cnco1 (stereo not given) | 3
CO[C@@H](CN(C)Cc1cc(F)ccc1F)[C@@H](C)CN([C@H](C)CO)S(=O)(=O)c1ccc(C)cc1 | -47
CCCCc1ncc(-c2c(-c3ccccc3)ncn2C2CCNC2)[nH]1 (stereo not given) | 3
Nc1nc(CCC(=O)N2CCCC(N3CCC(CO)CC3)C2)cs1 (stereo not given) | 2
Cc1ccc(NC(=O)CC(=O)N2CCCC2c2cc(C(C)C)on2)cc1 (stereo not given) | 2
NC(=S)N=Nc1c(O)n(Cc2ccccc2)c2ccccc12 | -103*
Cc1cccc(C)c1-c1c(-c2ccccc2)ncn1CCCCN | -14
Cc1ccc(CNC(=O)Cn2ncc3c(N4CCCCC4)ncnc32)cc1 | -103*
Cc1nc(-c2ccc(F)cc2)nc2c1CCN(c1ncc(F)cn1)CC2 | -13
CC(C)Cc1cc(C(=O)N2CCOC(CCN(C)C)C2)on1 (stereo not given) | 16
CO[C@@H]1CN(C)C(=O)c2cc(NC(=O)NC3CCCCC3)ccc2OC[C@H](C)N(CC2CCOCC2)C[C@H]1C | -31
CCCN1C(=O)NC(CC(=O)N2CCc3c(nc(C)nc3N(C)C)C2)C1=O (stereo not given) | -4

Assay outcomes as filed in PubChem.
